HPGD block = qHTS Assay for Inhibitors of HPGD (15-Hydroxyprostaglandin Dehydrogenase); 15-hydroxyprostaglandin dehydrogenase [NAD(+)] (Homo sapiens), P15428; purified HPGD, NADH fluorescence kinetic, PGE2 substrate; Potency, µM, for the others: at the highest dose activity change, negative = inhibition, hits mostly inhibitors; actives 4.3% (n = 150,000); AID 894, 2007; active = well fitted inhibition curve with a large enough effect (not every such curve was filed as active); inconclusive = small, poorly fitted or top-dose-only effect, or another doubt; inactive = no such curve, though single readings can be large or run the other way;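 further: top concentration of the series not given in the record; plate controls included wells without enzyme; inactives centre near -10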
Target sequence (P15428 whole entry, looked up): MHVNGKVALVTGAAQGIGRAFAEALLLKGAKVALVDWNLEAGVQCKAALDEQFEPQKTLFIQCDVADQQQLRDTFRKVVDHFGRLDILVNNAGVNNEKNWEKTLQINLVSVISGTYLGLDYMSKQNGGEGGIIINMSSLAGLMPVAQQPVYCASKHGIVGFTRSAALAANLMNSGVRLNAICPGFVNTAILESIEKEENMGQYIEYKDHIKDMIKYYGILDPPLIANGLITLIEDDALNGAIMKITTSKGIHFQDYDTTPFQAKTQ
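20 nM HPGD preincubated 15 min at room temperature with compound in 50 mM Tris-HCl pH 8, 0.01% Tween 20. Started with 1 mM NAD+ and 30 uM prostaglandin E2; NADH fluorescence (360/450 nm) read 5 times over 30-s intervals, last minus first.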
* marks the source's active call; other numbers are inactive results; u = inconclusive. On the % scale 0 is the no-effect control and ±100 the full control effect; potency means the concentration at half of the fitted maximal effect. This is a subset (hit frequency here may not be typical).

compound,HPGD block
COc1ccc(C(CNC(=O)c2ccc(-n3cnnn3)cc2)N2CCOCC2)cc1 (centres undefined),-8.2%
Cc1cc2cc(CNC(=O)c3ccc(S(=O)(=O)N4CCOCC4)cc3)ccc2n1C,-12.8%
COC(=O)[C@@H]1C[C@H]1[C@@H](NC(=O)Oc1ccc(F)cc1)c1ccccc1,-6.3%
COC(=O)C1=C(C)N(c2cccc(OC)c2)C(=O)/C1=C\c1ccco1,-3.2%
Cc1ccc(C)c(N2CCN(C(=O)Cc3cn(C)c4ccccc34)CC2)c1,-6.4%
Cc1cc(/C=C(/C#N)c2nc3ccccc3[nH]2)c(C)n1-c1cccc([N+](=O)[O-])c1,-25.4%
COC(=O)c1cc(OC)c(OC)c(OC)c1N,-19.7%
COCC(C)NC(=O)c1noc2c1CCc1cc(OC)ccc1-2 (centres undefined),-13.1%
N#CC(C#N)=C1C=C2C=C(N3CCCCC3)CCC2CC1 (centres undefined),-13.3%
O=C(NS(=O)(=O)c1ccc(F)cc1)O[C@@H]1C(=O)c2cc(Br)ccc2O[C@H]1c1ccc2c(c1)OCO2,-9.4%
CC(C)c1cc(C(=O)N/N=C/C=C/c2ccccc2)n[nH]1,-15.7%
CCOCC(=O)Nc1nc2ccc(C)cc2s1,-9.2%
C=CCn1c(NC(=O)c2ccccc2Cl)c(C#N)c2nc3ccccc3nc21,u
Cn1nnnc1SCC(=O)Nc1nc(-c2ccccc2)c(-c2ccccc2)o1,u
CC(Cl)C(=O)Nc1ccccc1C#N (centres undefined),-13.7%
C=CCNC(=S)N1CCC(C(=O)c2ccc(OC)cc2)CC1,-11.8%
O=C(c1ccco1)[C@@H]1[C@@H]2C(=O)N(c3ccc(Br)cc3)C(=O)[C@@H]2C2c3ccccc3C=CN21 (some centres undefined),u
COc1ccccc1NC(=S)NC(=O)CCCOc1ccc(Cl)cc1Cl,-18.3%
COc1ccccc1C1C(C(=O)c2cc3ccccc3o2)=C(O)C(=O)N1CCN(C)C (centres undefined),-12.7%
Cn1c(=O)n(CCc2ccccc2)c(=O)c2c1nc1n2CCN1Cc1ccco1,-4.3%
COc1ccccc1C(=O)Nc1cccc(SC)c1,-8.5%
CC(=O)N(c1ccc2oc(=O)sc2c1)S(=O)(=O)c1ccccc1,-28.0%
Cc1ccc(CCNC(=O)C2CC(c3ccccc3[N+](=O)[O-])=NO2)cc1 (centres undefined),-24.4%
CCCn1nnnc1SCC(=O)NCc1cccs1,-1.5%
Cc1c(N(C(=O)Nc2ccccc2)C2=NCC(C)S2)c(=O)n(-c2ccccc2)n1C (centres undefined),-11.3%
CCC1=NN2C(=N)/C(=C\c3ccc(SCc4ccco4)o3)C(=O)N=C2S1,-23.4%
Cc1ccc(CNC(=O)c2ccccc2N)cc1,u
Cc1cc(C)nc(SCC(=O)N/N=C\C(Br)=C\c2ccccc2)n1,u
O=C(COc1ccc(Br)cc1)NCCO,-2.1%
CC(C)(C)NC[C@H](O)COc1cccc2[nH]c(=O)[nH]c12,6.0%

In another format: results already given
COc1ccccc1C(=O)Nc1cccc(SC)c1
  HPGD block: -8.5%

CC(=O)N(c1ccc2oc(=O)sc2c1)S(=O)(=O)c1ccccc1
  HPGD block: -28.0%

(next part)
compound,HPGD block
CC(C)(C)C(=O)NCCc1nc2ccccc2n1CC(=O)c1ccccc1,-8.1%
COC(=O)c1ccc(C2CC(=O)Nc3cc(OC)c(OC)cc32)cc1 (centres undefined),1.3%
Cc1cc(C)c(NC2=CC(=O)CC(C)(C)C2)c(C#N)c1,-15.3%
CCCSc1nc(=O)n2cc(C)ccc2n1,-8.2%
CCC(C)NC(C(=O)Nc1ccc(Cl)c([N+](=O)[O-])c1)c1ccccc1 (centres undefined),0.6%
Cc1cc(C)nc(/N=C(\N)Nc2ccc(F)c([N+](=O)[O-])c2)n1,-7.3%
O=C(CSc1nnc(C2COc3ccccc3O2)o1)N1CCOCC1 (centres undefined),1.6%
NS(=O)(=O)c1ccc(NC(=S)NCc2ccccc2)cc1,20µM*
Cc1cc(C)cc(NC2=CC(=O)CC(c3ccco3)C2)c1 (centres undefined),-27.6%
COCCCn1nnnc1SCC(=O)Nc1nc(C)c(C)s1,0.9%
Cn1c(SCC(=O)N(C2CCCCC2)C2CCCCC2)nnc1-c1cccs1,-3.9%
COc1ccc(CNC(=O)Cc2c(C(=O)O)[nH]c3ccccc23)cc1,-22.5%
O=C(CSCc1ccccc1)Nc1ccc2c(c1)OCO2,-17.7%
Cn1c(Cn2c(C(F)(F)F)nc3ccccc32)nc2ccccc21,-4.4%
CNC(=S)Nc1ccc(OC)c(OC)c1,-3.2%
O=S(=O)(Cc1ccccc1)N1CCn2c(nc3ccccc32)C1,-2.6%
CCC(=O)N/C=C/n1cnc2cc(C(F)(F)F)ccc21,4.2%
COc1ccc(NC2=C(NCCO)C(=O)c3ccccc3C2=O)cc1,-18.1%
CN(C)S(=O)(=O)N1CCN(C(=O)N2CCCCCC2)CC1,-11.6%
COc1cc(C2N3CC4(C)CN2CC(C)(C3)C4)ccc1O (centres undefined),-2.4%
CCOC(=O)C(=Cc1cc(=O)c(OC)co1)C(=O)OCC,u
CCC1(C)Cc2c(sc3c2c2ncnn2c2nnc(SCC(=O)NCc4ccco4)n32)CO1 (centres undefined),-21.4%
O=C(Nc1ncc2c(n1)-c1ccccc1CC2)c1ccc(F)cc1,-19.4%
CCOC(=O)c1nnn(CC(=O)Nc2cc(Cl)ccc2C)c1C(=O)OCC,-9.4%
CCCN(CCC)CCCNS(=O)(=O)c1cc(Br)cc2c1N(C(C)=O)CC2,-10.5%
CC[C@H](C)[C@H](NS(=O)(=O)c1ccc(C)cc1)C(=O)N1CCC(C(=O)N[C@@H](C)C(=O)O)CC1,2.0%
Cc1ccc(-n2c(=O)[nH]cc(C(=O)Nc3ccc4c(c3)OCO4)c2=O)cc1C,-9.5%
CCCC(=O)Nc1ccc(N2CCN(S(C)(=O)=O)CC2)cc1,-5.3%
COc1cc(/C=C/C(=O)c2ccc(NS(=O)(=O)c3ccc(C)cc3)cc2)cc(OC)c1O,-17.2%
COc1ccc(NC(=O)CSc2nc(-c3ccncc3)nn2CC(=O)N2CCCC2)cc1,u

The listing continues.
mol	HPGD block
CCN(CC)S(=O)(=O)c1cccc(-c2nc3n(n2)Cc2ccccc2-3)c1	-3.3%
CCCCOc1ccc(-c2nnc(-c3ccco3)o2)cc1	u
COc1ccc(OCC(O)CN2CCCCCC2)cc1 (centres undefined)	0.1%
COc1ccc(Br)cc1CN1CCN(C(=O)c2cccc(OC)c2OC)CC1	-9.2%
CCOC(=O)C(=O)N=Nc1c(O)[nH]c2ccccc12	-4.5%
Cc1ccccc1NC(=O)Cc1nc(CSc2nnc(C3CCCCC3)n2N)cs1	3.7%
O=c1c2ccccc2nc(SCc2ccccc2Cl)n1Cc1ccccc1	-8.6%
O=C(Cn1nc(Cc2cccnc2)c2ccccc2c1=O)Nc1ccc2c(c1)OCO2	-7.0%
Cn1c(=O)oc2cc(S(=O)(=O)N3CCCC(C(=O)NCC4COc5ccccc5O4)C3)ccc21 (centres undefined)	u
O=C(NCCc1ccc(Cl)cc1)C1CCN(C(=O)c2sccc2-n2cccc2)CC1	-0.3%
N#C/C(=C\c1cn(Cc2ccc(C#N)cc2)c2ccccc12)C(=O)NCc1cccs1	-6.5%
CC(=O)Nc1nc(-c2cccs2)cs1	-21.4%
C/C(=C(/NC(=O)c1ccccc1)C(=O)O)c1ccco1	-7.3%
CC1=C2C(=O)OC(c3ccoc3)C2(C)CCC1 (centres undefined)	-8.1%
O=C(NCCCn1ccnc1)c1cn(-c2ccccc2)nc1-c1ccc(F)cc1	-6.8%
O=C(C1CCN(CC2CC=CCC2)CC1)N(CCc1ccccc1)Cc1ccccc1 (centres undefined)	-6.8%
CNC(=S)NNC(=O)Cc1ccc(O)cc1	-12.5%
O=C(CCN1C(=O)c2ccccc2C1=O)N1CCN(Cc2ccc(Cl)cc2Cl)CC1	-10.7%
O=C(CN1C(=O)COc2ccccc21)NCCN1CCc2ccccc2C1	0.0%
O=C(c1ccc2nc(-c3ccco3)c(-c3ccco3)nc2c1)N1CCN(c2ccccc2)CC1	u
CN(CC(=O)Nc1ccc(S(=O)(=O)N2CCCC2)cc1)Cc1ccc(Cl)cc1Cl	-12.8%
O=C(CSc1nc2c(sc3ccccc32)c(=O)n1CCCN1CCCC1)NCC1CCCO1 (centres undefined)	u
Cc1cc(C)n2c(SCC(=O)N3CCN(S(=O)(=O)c4ccc(Cl)cc4)CC3)nnc2n1	-15.0%
COc1ccc(S(=O)(=O)N2CCCCCC2)cc1C(=O)OCC(=O)NCC(C)C	-12.6%
C=CCc1ccccc1OCC(O)CN1CCN(Cc2ccc3c(c2)OCO3)CC1 (centres undefined)	-11.9%
CCOc1ccc(S(=O)(=O)N(C)c2ccc(OCC(=O)Nc3nc(-c4cc(OC)ccc4OC)cs3)cc2)cc1	-7.2%
COCC(=O)Nc1nnc(SCC(=O)NCc2cccs2)s1	-12.0%
CCNC(=S)N1CCN(C(c2ccccc2)c2ccccc2)CC1	-13.3%
CCOc1ccc(N=Nc2c(N)[nH][nH]c2=O)cc1	-13.4%
Cc1ccccc1OCc1nc(-c2ccccc2)no1	-23.4%
O=C(c1ccc(C(=O)N2CCOCC2)nc1)N1CCOCC1	-7.8%
COCCn1c(C)cc(C(=O)COC(=O)c2ccc3ncsc3c2)c1C	-22.8%
CCOC(=O)N1CCN(S(=O)(=O)c2ccc(C(=O)Nc3ccc(F)cc3F)cc2)CC1	-4.5%
Cn1c(Cl)cnc1C(O)c1ccccc1 (centres undefined)	-8.4%
Clc1ccc2nc(-c3ccc(Br)s3)cn2c1	-15.6%
CC1Cc2ccccc2N1C(=O)CN1C(=O)CN(C)C(=O)c2ccccc21 (centres undefined)	-16.2%
COc1ccc(-n2c(C)cc(/C=C(\C#N)C(=O)NCc3ccco3)c2C)cc1	u
CCOC(=O)c1cc2occc2n1CCCN1C(=O)c2ccccc2C1=O	-15.1%
CCn1c(CCNC(=O)c2cccs2)nnc1SCC(=O)Nc1nc(-c2ccccc2)cs1	-2.7%
C=CCN1C=C2C(=O)C(C)(OC(=O)C3CCCC3)C(=O)C(c3ccccc3)=C2C=C1CCCC(=O)OC (centres undefined)	-2.8%
Cc1noc(COc2ccccc2OCC(N)=O)c1Cl	5.7%
CC12CN(C(=O)c3ccco3)CC(c3ccccc3)(CN(C(=O)c3ccco3)C1)C2=O	-1.4%
CCc1nc2cc(CC(=O)O)ccc2o1	2.3%
CN1/C(=C\C=C2/C(=O)Oc3ccccc3C2=O)C(C)(C)c2ccccc21	-12.0%
CC1(c2ccccc2)NC(=O)N(CC(=O)N2CCOCC2)C1=O (centres undefined)	-2.0%
O=c1c2c(-c3cccs3)csc2ncn1-c1ccccc1	-11.3%
Cc1ccn(-c2ccc([N+](=O)[O-])cc2)n1	-14.2%
CCCCCc1nc(-c2nonc2N)no1	-8.3%
CCNC(=S)NNC(=O)c1cc(-c2ccc(OC)cc2)nc2ccccc12	-11.9%
COC(=O)c1cn(C)c2ccc(S(=O)(=O)N3CC(C)CC(C)C3)cc2c1=O (centres undefined)	-14.0%

(further entries)
mol	HPGD block
Cc1ccccc1-n1c(=O)cc(N2CCCCCC2)[nH]c1=O	-8.4%
O=C(c1cnc2n(c1=O)CCS2)N1CCN(c2ccc(Cl)c(Cl)c2)CC1	-17.4%
N#Cc1ccc(-c2ccco2)nc1SCc1ccccc1	u
COc1ccc(OC)c(C2CC(=O)N3CN(c4ccc(C)c(Cl)c4)CSC3=C2C#N)c1 (centres undefined)	u
C[C@@H]1CCC[C@@]2(O[C@H](CCO)C[C@@H](O)[C@@H]2O)O1	-8.9%
CCOC(=O)NNC1CC(=O)N(c2ccccc2)C1=O (centres undefined)	-5.5%
CCn1cc(CN(C)S(=O)(=O)c2ccc3ccccc3c2)c(C)n1	-3.8%
Cc1nc(NC2=NCN(Cc3cccnc3)CN2)nc2ccccc12	-3.3%
O=C(c1ccco1)N1CCCC(c2nc(-c3ccc(S(=O)(=O)NCc4ccccc4)cc3)no2)C1 (centres undefined)	-22.0%
N#Cc1cc(-c2ccccc2)cn(Cc2c(Cl)cccc2Cl)c1=O	u
CCCCCn1c(CN2CCN(Cc3ccccc3)CC2)nc2c1c(=O)[nH]c(=O)n2C	-5.0%
O=S(=O)(NCc1ccco1)c1ccc(S(=O)(=O)N2CCCCC2)cc1	-13.0%
COCCCn1c(-c2ccccc2Cl)n[nH]c1=S	-6.2%
O=C(CCN1C(=O)c2ccccc2C1=O)N1CCN(c2ccccn2)CC1	-7.3%
Cn1cccc1C(=O)N1CCC2(CCN(Cc3nccs3)CC2)CC1	-12.8%
OC(CSc1ccccc1Cl)CN1CCN(c2ccc(F)cc2)CC1 (centres undefined)	-8.3%
O=C(OCCN(C1=NS(=O)(=O)c2ccccc21)c1ccc(Cl)cc1)c1ccco1	-5.6%

Reformatted field by field: part of the list above.
OC(CSc1ccccc1Cl)CN1CCN(c2ccc(F)cc2)CC1 (centres undefined)
- HPGD block: -8.3%

O=S(=O)(NCc1ccco1)c1ccc(S(=O)(=O)N2CCCCC2)cc1
- HPGD block: -13.0%

O=C(CCN1C(=O)c2ccccc2C1=O)N1CCN(c2ccccn2)CC1
- HPGD block: -7.3%

C[C@@H]1CCC[C@@]2(O[C@H](CCO)C[C@@H](O)[C@@H]2O)O1
- HPGD block: -8.9%

Screens as filed in PubChem.
